# KCNQ2 enhance: potentiators of rat KCNQ2 potassium channel | CHO-K1 KCNQ2, FluxOR thallium flux fluorescence; stronger effect = higher value | O88943 | B-score at 10 µM | hit rate 0.54% among 310,000;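 active means fluorescence ratio B-score at least 3 SD of library B-scores, with initial fluorescence B-score within 3 SD, cut at about 5.3 in these data; same plate scores as AID 2156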;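 further: B-score of peak minus minimum over baseline fluorescence ratio after K+ and Tl+ stimulus; positive B-score means potentiation of KCNQ2 with more thallium influx and brighter signal; only the inactives scoring about 0 or higher are listed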
# Target sequence (O88943 whole entry, looked up): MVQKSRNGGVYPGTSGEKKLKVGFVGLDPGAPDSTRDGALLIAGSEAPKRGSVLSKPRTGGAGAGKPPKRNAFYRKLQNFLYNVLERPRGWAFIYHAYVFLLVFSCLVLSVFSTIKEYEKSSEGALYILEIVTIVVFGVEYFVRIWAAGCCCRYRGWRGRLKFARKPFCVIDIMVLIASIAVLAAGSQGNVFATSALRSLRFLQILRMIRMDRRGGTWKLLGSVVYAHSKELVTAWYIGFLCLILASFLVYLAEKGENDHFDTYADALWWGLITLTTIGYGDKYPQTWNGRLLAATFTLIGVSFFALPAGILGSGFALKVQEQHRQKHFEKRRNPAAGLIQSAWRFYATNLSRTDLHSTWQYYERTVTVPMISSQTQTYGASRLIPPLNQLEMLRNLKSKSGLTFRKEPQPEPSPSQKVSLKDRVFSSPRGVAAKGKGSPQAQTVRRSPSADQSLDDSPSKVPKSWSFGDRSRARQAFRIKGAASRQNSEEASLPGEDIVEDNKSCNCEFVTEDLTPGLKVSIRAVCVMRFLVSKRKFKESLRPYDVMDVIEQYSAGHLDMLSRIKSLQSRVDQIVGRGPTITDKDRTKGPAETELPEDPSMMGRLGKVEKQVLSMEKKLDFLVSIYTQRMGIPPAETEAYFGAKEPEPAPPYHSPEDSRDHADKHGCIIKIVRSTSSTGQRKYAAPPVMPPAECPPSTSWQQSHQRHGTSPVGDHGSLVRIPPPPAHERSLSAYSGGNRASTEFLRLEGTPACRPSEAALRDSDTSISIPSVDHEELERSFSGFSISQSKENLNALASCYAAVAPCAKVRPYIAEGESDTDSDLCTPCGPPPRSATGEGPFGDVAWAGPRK
# KCNQ2 enhance baseline: also measured in KCNQ2 enhance; calls as there; B-score; compound at 10 µM; measured here: initial fluorescence intensity artifact check;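 brightness before thallium and not channel activity; 0 = typical well and far values either way flag optical interference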
# * hit, by the source's call.
SMILES,KCNQ2 enhance,KCNQ2 enhance baseline
CC(C)C(NS(=O)(=O)/C=C/c1ccccc1)C(=O)NCc1ccc(F)cc1 (centres undefined),1.15,-1.05
CC(C(=O)O)n1c2ccccc2c2cn[nH]c(=O)c21 (centres undefined),1.66,1.68
N#CC1=C(N)Oc2c(sc3ccccc23)C1c1ccco1 (centres undefined),0.99,1.4
COCCNC(=S)N/N=C/c1ccc(OCc2ccc(C(=O)OC)cc2)cc1,0.52,3.52
C=CCOc1ccc(/C=C/C(=O)OCC(=O)Nc2c(C)n(C)n(-c3ccccc3)c2=O)cc1,0.81,-0.13
Cc1ccc(S(=O)(=O)N2CCCC2C(=O)Nc2nccs2)cc1 (centres undefined),0.26,-0.8
O=C(CSCC(=O)Nc1ccccc1)N/N=C/c1c(O)ccc2ccccc12,2.39,-0.3
O=C(CCCn1c(SCc2cccc([N+](=O)[O-])c2)nc2ccccc2c1=O)NCC1CCCO1 (centres undefined),0.93,0.67
O=C(CCCc1c[nH]c2ccccc12)N1CCN(c2ccc(N3CCOCC3)nn2)CC1,0.48,-0.27
O=C(O)COc1ccc2nsnc2c1Cl,0.12,-0.45
CCn1cc(C(=O)Nc2cc(C)ccc2C)c(=O)c2ccc(C)nc21,0.26,1.28
Cc1noc(NS(=O)(=O)c2ccc(NC(=O)CCN3C(=O)c4ccccc4C3=O)cc2)c1C,0.62,0.03
Cc1nn(C)c(C)c1C1C(C#N)=C(N)Oc2n[nH]c(C)c21 (centres undefined),0.85,0.13
Cc1nonc1NC(=O)c1oc2ccccc2c1C,0.76,-1.07
NS(=O)(=O)c1ccc(CCNC(=O)C2CCN(S(=O)(=O)c3cnc[nH]3)CC2)cc1,0.96,-0.88
COc1ccc(-c2ccc(SCC(=O)NCc3ccco3)nn2)cc1OC,0.67,-0.27
COc1ccc(/C=N/NC(=O)C[n+]2ccccc2)c(OC)c1OC,1.02,1.18
CN1CCN(CCc2nc3cc(NC(=O)COc4ccc([N+](=O)[O-])cc4)ccc3n2C)CC1,0.35,1.34
Cc1nc2cc(NC(=O)c3ccc(S(=O)(=O)N(C)c4ccccc4)cc3)ccc2o1,0.74,-1.58
CC(=O)Nc1cccc(NC(=O)c2oc3ccccc3c2C)c1,0.09,-0.05
COc1ccc(C(=O)Nc2ccccc2-c2nnn(CC(=O)NCc3ccco3)n2)cc1,0.45,-0.43
CCN1CCN(Cc2ccc(NC(=O)Nc3ccccc3Cl)cc2)CC1,1.13,0.39
c1ccc(N=Nc2ccc3cccccc2-3)cc1,0.11,1.96
COc1cc(NC(=O)C(C)C)ccc1NC(=O)c1ccco1,0.25,-0.06
COc1ccccc1N1C(=O)CC(Sc2nc(C)cc(C)n2)C1=O (centres undefined),0.04,-2.21
# Further compounds follow:
SMILES,KCNQ2 enhance,KCNQ2 enhance baseline
COc1ccc(NC(=O)COC(=O)C2CCN(S(=O)(=O)c3cccs3)CC2)cc1,1.52,1.08
CCOC(=O)c1c(NC(=O)COC(=O)CCOc2ccc(C)cc2)sc(C(=O)N(C)C)c1C,0.78,0
O=C(CS(=O)(=O)c1ccc(F)cc1)Nc1nccs1,0.03,0.79
COc1ccc(NC(=O)NC2CCCCC2C)cc1 (centres undefined),1.09,1.53
S=c1[nH]nc(COc2ccccc2)n1/N=C/c1cccs1,0.96,-1.35
C=CCN(c1ccc(C(=O)Nc2ccc3c(c2)n(C)c(=O)n3C)cc1)S(C)(=O)=O,1.81,-2.47
O=C(Cn1nc(-c2ccco2)ccc1=O)Nc1ccc(Cl)c(Cl)c1,0.04,-3.33
COc1ccc(-n2c(/C=C3\C(=O)N(C)c4ccccc43)nc3ccccc3c2=O)cc1,1.06,-0.21
O=C(O)C1CCCCC1C(=O)Nc1ccc(Cl)cc1 (centres undefined),1.37,0.79
O=C(COC(=O)c1ccccc1)Nc1cccc(S(=O)(=O)N2CCOCC2)c1,1.15,1.22
Cc1[nH]c(=S)sc1Cc1ccc(Cl)c(Cl)c1,1.75,-0.87
COC(=O)c1ccccc1NC(=O)CCn1c(=O)oc2ccccc21,0.7,1.06
COc1cc(/C=N/NC2=NS(=O)(=O)c3ccccc32)cc(OC)c1OC,1.07,-1.2
CCC1(c2ccccc2)NC(=O)N(CC(=O)Nc2nnc(C3CC3)s2)C1=O (centres undefined),0.04,-1.33
Cn1c(-c2ccc(Cl)nc2)nc2cc(Cl)ccc21,0.45,-1.97
S=c1[nH]c2cc(Cl)ccc2s1,18.2*,-0.21*
CCOC(=O)N1CCN(C(=O)c2ccc(OC)c(S(=O)(=O)N3CCOCC3)c2)CC1,0.71,1.35
CCN(CC)CCOC(=O)C1c2ccccc2Oc2ccccc21,0.27,-0.08
Cc1nn(C)cc1/C=N\NC(=O)c1csc2c1CCCC2,0.8,1.23
O=C(CN1CCN(Cc2ccccc2)CC1)N/N=C/c1ccc(Br)s1,0.46,1.98
O=C(Nc1ccccc1N1CCN(c2ccc(F)cc2)CC1)C1CCCCC1,0.07,1.19
CC(=O)N(CN1C(=O)C2CC=CCC2C1=O)c1cccc(Cl)c1 (centres undefined),0.53,0.45
CCOC(=O)CCP(=O)(O)C(O)(c1ccccc1)c1ccccc1,0.26,-0.76
COC(=O)c1cn(NC(=O)C2CCCCC2)c(=O)c2ccccc12,1.63,0.09
CC1NC(=O)NC1CCCCCC(=O)NCCc1ccccc1 (centres undefined),0.39,1.59

# Arranged by SMILES length (lowest first): 3 of the compounds above
SMILES,KCNQ2 enhance,KCNQ2 enhance baseline
CC1NC(=O)NC1CCCCCC(=O)NCCc1ccccc1 (centres undefined),0.39,1.59
O=C(CS(=O)(=O)c1ccc(F)cc1)Nc1nccs1,0.03,0.79
O=C(CN1CCN(Cc2ccccc2)CC1)N/N=C/c1ccc(Br)s1,0.46,1.98

# The main list resumes with the 5 entries that preceded the break.
SMILES,KCNQ2 enhance,KCNQ2 enhance baseline
O=C(Nc1ccccc1N1CCN(c2ccc(F)cc2)CC1)C1CCCCC1,0.07,1.19
CC(=O)N(CN1C(=O)C2CC=CCC2C1=O)c1cccc(Cl)c1 (centres undefined),0.53,0.45
CCOC(=O)CCP(=O)(O)C(O)(c1ccccc1)c1ccccc1,0.26,-0.76
COC(=O)c1cn(NC(=O)C2CCCCC2)c(=O)c2ccccc12,1.63,0.09
CC1NC(=O)NC1CCCCCC(=O)NCCc1ccccc1 (centres undefined),0.39,1.59
N#Cc1nc(COc2ccccc2Cl)oc1N1CCCCCC1,0.16,-0.69
CCC(C)(C)NC(=O)C(c1cccn1C)N(C(=O)Cn1nnc2ccccc21)c1ccc(NC(C)=O)cc1 (centres undefined),0.01,-0.08
Cc1c(NC(=O)c2nn3c(c2Br)NC(c2ccccc2)CC3C(F)(F)F)c(=O)n(-c2ccccc2)n1C (centres undefined),1.32,-0.81
COc1ccc(OCc2nc(-c3ccc(F)c(F)c3)cs2)cc1,0.23,1.09
CC(=O)c1cccc(CN2CCC(C(=O)Nc3ccc(Oc4cccnc4)cc3)CC2)c1,0.99,-0.83
COc1ccc(-c2csc(N(CCCN(C)C)C(=O)c3ccccc3F)n2)cc1,2.02,-0.01
COC(=O)c1ccc(NC(=O)c2ccccc2SC)cc1,1.88,0.91
COc1ccc(N2CCN(C(=O)CSc3nnc4c(C)cc5cc(C)ccc5n34)CC2)cc1,0.99,-0.71
C=C1CCN(C(C(=O)OC)C(C)C)S(=O)(=O)c2ccc(F)cc21 (centres undefined),0.12,-0.3
COc1ccccc1C(=O)NNC(=O)C(=O)Nc1ccc(C)cc1,21.7*,0.65*
CCOc1ccc(N=Cc2c(O)n(-c3cccc(C)n3)c(=O)c3ccccc23)cc1,0.08,-0.76
CN1C(c2ccc(F)cc2)=CS/C1=C(\C#N)c1nnc2n1-c1ccccc1SC2,0.93,-0.4
CCOC(=O)C1(CC2CCCCO2)CCN(S(=O)(=O)c2ccc(C)s2)CC1 (centres undefined),0.4,-0.94
CCC1(c2ccccc2)NC(=O)N(CC(=O)N(C)CC(=O)Nc2cccc(F)c2)C1=O (centres undefined),0.07,-1.14
CCn1cc(C(=O)NCCCN2CCCC(C)C2)c(=O)c2cc(S(=O)(=O)N3CCc4ccccc4C3)ccc21 (centres undefined),0.7,0.29
Cc1c(Br)c([N+](=O)[O-])nn1CC(=O)Nc1cccc2nonc12,0.67,-0.16
Cc1c(Nc2cc(=O)oc3ccccc23)c(=O)n(-c2ccccc2)n1C,0.97,0.02
CN(CCC#N)C(=O)c1cc2c(s1)-c1ccccc1SC2,0.68,-0.11
O=c1[nH]c(SCc2nc3ccccc3n2Cc2ccccc2)nc2ccccc12,0.66,-0.29
O=C(Nc1nc(-c2ccc(Br)cc2)cs1)c1cccnc1,0.36,2.21
COc1ccccc1OCC(=O)Nc1ccc(S(=O)(=O)N2CCCC2)cc1,0.79,-0.16
O=c1[nH]c(CSc2ncn[nH]2)nc2ccccc12,1.37,-0.43
Cc1cc2ncc(C(=O)Nc3ccccc3)c(C)n2n1,0.35,-0.39
Cc1nc2ccccc2cc1C(=O)O,1.33,0.51
COCCn1c(Cc2ccccc2)nnc1SCC(=O)N(C)C,0.8,-0.03
# The results go on.
SMILES,KCNQ2 enhance,KCNQ2 enhance baseline
COc1ccc(S(=O)(=O)NCCCn2ccnc2)cc1C(C)(C)C,0.09,0.9
Cc1cccc(OCc2nc(-c3ccccn3)n[nH]2)c1,0.04,1.2
COc1cc(/C=C/C(=O)OCC(=O)NCCC2=CCCCC2)ccc1O,0.31,-1.8
COc1ccccc1N1CCN(c2cc(C)nc3nc(C)nn23)CC1,2.62,1.54
CN(C)c1ccc(-c2nc3ccccc3n2C)cc1,0.03,1.03
COc1ccc(N2CCN(C(=O)c3ccc(C)c(NC(=O)C4=C(C)OCCS4)c3)CC2)cc1,1.43,0.01
Cc1ccc(-n2cccc2/C=N/n2cnnc2)cc1Cl,0.62,0.6
Cc1ccc(NC(=O)CSc2nccn2Cc2ccccc2)cc1C,0.81,-0.61
O=C(CNC(=O)c1ccccc1F)NCCOc1cccc(Cl)c1Cl,0.74,0.06
Nc1nnc(CCS(=O)(=O)c2ccc(Cl)cc2)s1,1.36,-0.36
COc1cc(CN2CCCC(CO)(Cc3ccccc3F)C2)ccc1O (centres undefined),1.35,0.09
COC(=O)C1CCN(C(=O)COC(=O)C2CCN(S(=O)(=O)c3ccc4c(c3)OCCO4)CC2)CC1,1.87,1.07
Cc1ccc(S(=O)(=O)/N=c2\sccn2C)cc1,0.34,1.2
Cc1cc(=O)oc2cc(OCC(=O)NCCN3CCOCC3)c(Cl)cc12,1.44,0.87
CC1(C)CC(N2CCN(C(c3ccccc3)c3ccccc3)CC2)=CC(=[N+]2CCCCC2)C1,1.99,-2.87
CC(C)NC(=O)CSc1nc(N)c(NC(=O)c2ccco2)c(=O)[nH]1,0.02,-0.02
Cc1ccc2nc(NC(=O)/C=C/c3ccc4c(c3)OCO4)sc2c1,1.4,-0.26
C/C(=N\NC(=O)CCc1ccc(S(=O)(=O)N2CCOCC2)cc1)c1ccc(OC(F)F)cc1,1.09,0.42
COc1ccc(NC(=O)Nc2cccc(OC)c2)cc1,1.19,0.05
COCCN(C(=S)Nc1cc(C)ccc1C)C(C)c1cccnc1 (centres undefined),0.47,0.14
O=C(c1cccs1)N1CCOCC1,0.67,-0.94
Cc1ccsc1C(=O)N(CC(C)C)c1c(N)n(Cc2ccccc2)c(=O)[nH]c1=O,1.01,-0.64
Cc1noc(C)c1C(=O)Nc1sc2c(c1C(N)=O)CCCCC2,0.56,-0.3
O=C(NCc1ccccn1)Nc1ccc(F)cc1,1.05,-3.3
COc1ccccc1C1=Nc2cccc3cccc(c23)N1,0.66,-1.42

# No new results follow: 2 of the compounds above.
SMILES,KCNQ2 enhance,KCNQ2 enhance baseline
O=C(NCc1ccccn1)Nc1ccc(F)cc1,1.05,-3.3
COc1ccccc1C1=Nc2cccc3cccc(c23)N1,0.66,-1.42

# (more compounds)
SMILES,KCNQ2 enhance,KCNQ2 enhance baseline
O=C(O)c1cccc(NC(=O)c2ccc3c(c2)C(=O)N(C2CCCCC2)C3=O)c1,2.13,-0.53
Cc1cccc2cc(CN(Cc3ccco3)C(=O)c3ccncc3)c(=O)[nH]c12,0.56,3.18
Fc1ccc(CNC(=S)NC2CCCC2)cc1,1.57,1.05
COC(=O)c1ccc(NC(=O)COC(=O)CSc2nc(C)cc(C)n2)cc1,0.07,-0.11
CC1=NNC(=O)C(CC(=O)Nc2ccc(Cl)c(Cl)c2)C1 (centres undefined),1.34,1.2
O=C(Nc1ccc(N2CCOCC2)cc1)c1ccncc1,2.02,1.14
CCOC(=O)CC(C)(C)/C(C)=N/Nc1ccc([N+](=O)[O-])cc1[N+](=O)[O-],0.18,1.35
COc1cc(CN2CCNC(=O)C2CC(=O)NCCC2=CCCCC2)cc(OC)c1 (centres undefined),0.6,1.25
CC1CCCC(NC(=O)CSc2ccc(F)cc2)C1C (centres undefined),0.8,1.57
NNC(=O)CCCNc1ncc(C(F)(F)F)cc1Cl,1.24,-0.1
CCOc1ccc(N2CC(C(=O)Nc3ccccc3OC)CC2=O)cc1 (centres undefined),0.68,0.4
CCCOC1CCCN(C(=O)c2cc(Cl)c(Cl)cc2C(=O)O)C1 (centres undefined),8.55*,-1.53*
Cc1ccc(C(=O)NCC(=O)Nc2ccc(F)c(F)c2F)cc1,2.33,0
COc1ccccc1OCCNC(=O)c1ccc(C)o1,0.04,1.74
CN(c1ccccc1)S(=O)(=O)c1cccc(NC(=O)Cn2cnc3c2c(=O)n(C)c(=O)n3C)c1,0.06,-0.03
CC(C)N=C(NC#N)SCc1ccc(F)cc1,0.15,-0.01
CC(C)(C)c1ccccc1OCCCCCNCCO,1.9,-1.22
CC(C)CC(C(=O)Nc1cccc(O)c1)N1C(=O)c2ccccc2C1=O (centres undefined),0.09,1.51
COC(=O)c1ccccc1NC(=O)CN1C(=O)c2ccccc2S1(=O)=O,1.9,-0.85

# Source: PubChem (Johns Hopkins Ion Channel Center)

# An excerpt; the hit share may differ from the screen's.
